# Bioassay records deposited in PubChem by ICCB-Longwood Screening Facility, Harvard Medical School.
# GIV-Gai inh: inhibitors of GIV GBA-motif binding to rat Galpha-i3; Galpha-i3/FITC-GIV peptide fluorescence polarization, 90 min; hits give low values; scaled: aluminum fluoride 0%, vehicle 100%; 210,000 tested, 0.42% active; P08753; percent of control (FP), % (test concentration not listed); AID 1224905;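 active means replicate mean at 85% of control or lower, very high polarization wells dropped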;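 further: wells of about 15 µL received 100 nL stock; the first replicate is given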
# Target sequence (P08753 whole entry, looked up): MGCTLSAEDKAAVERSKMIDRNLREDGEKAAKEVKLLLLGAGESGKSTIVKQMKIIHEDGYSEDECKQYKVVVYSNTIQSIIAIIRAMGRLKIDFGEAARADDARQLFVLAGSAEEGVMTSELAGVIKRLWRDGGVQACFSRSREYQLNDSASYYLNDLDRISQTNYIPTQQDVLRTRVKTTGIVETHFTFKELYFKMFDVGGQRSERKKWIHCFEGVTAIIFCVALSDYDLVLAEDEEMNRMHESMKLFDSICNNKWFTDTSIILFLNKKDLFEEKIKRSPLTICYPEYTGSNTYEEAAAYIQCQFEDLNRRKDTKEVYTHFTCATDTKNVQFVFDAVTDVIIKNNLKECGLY
# HCMV NEC inh: inhibitors of HCMV UL50-UL53 nuclear egress complex interaction; HTRF UL50-UL53 interaction, normalized percent inhibition; inhibition, % (no concentration beside the values); 190,000 tested, 0.15% active; AID 1918969;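 active means both replicates at 50% or more, plus weaker picks with an unusually low signal ratio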;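 further: stock transfer was 100 nL into about 20 µL; 0% = negative control wells and 100% = wells with untagged competitor protein; inactives centre near -12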
# Sa growth 42C: S. aureus growth inhibition. S. aureus RN4220 growth, OD600, 20 h, 42 °C; hits give low values. relative growth, % (concentration not given with the values). 170,000 tested, 0.53% active. AID 720641;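 active means growth at 42 °C up to 50% and 20 or more points under that at 30 °C, or under 10% at both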;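 further: 300 nL library stock went into each well; scaled to the means of positive and negative controls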
# Sa growth 42C second temp: also measured in Sa growth 42C; calls as there; relative growth, %; measured here: growth at 30 °C;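 optical density after 20 h as mean of two plates; 100% = untreated growth and lower means inhibition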
# An asterisk follows results filed as active; nt = not tested or not shown; & = joins results of further samples.
# The opening 2 records, ahead of the listing:
item	SMILES	GIV-Gai inh	HCMV NEC inh	Sa growth 42C	Sa growth 42C second temp
1	C=CCNC(=O)Cn1c(C(F)(F)F)nc2ccccc21	98.8	-17.2	nt	nt
2	CCc1ccc(C(N)=S)cc1	nt	-23.4	98.4	91.6

# The whole of this part, previewed entries included:
item	SMILES	GIV-Gai inh	HCMV NEC inh	Sa growth 42C	Sa growth 42C second temp
1	C=CCNC(=O)Cn1c(C(F)(F)F)nc2ccccc21	98.8	-17.2	nt	nt
2	CCc1ccc(C(N)=S)cc1	nt	-23.4	98.4	91.6
3	COc1ccc(-c2noc(C3CC(=O)N(c4cc(C)cc(C)c4)C3)n2)cc1 (stereo unspecified)	97.8	nt	72.6	90.1
4	CCOC(=O)c1c(NC(=O)c2cc3ccccc3c(=O)s2)sc(C)c1C	104.4	-3.6	nt	nt
5	CN1C(=O)c2oc3ccccc3c(=O)c2C1c1ccccc1 (stereo unspecified)	102.2	-5.6	110.4	98.5
6	O=C(O)C1C2CCC(C2)C1C(=O)N1CCN(c2ncccn2)CC1 (stereo unspecified)	100.1	-11.1	101.5	102.2
7	Cc1cc2cc(CCNC(=O)/C=C\c3ccccc3)c(=O)[nH]c2cc1C	102.3	nt	122.3	88.6
8	COc1ccc(/C=C2\SC(N3CCN(C(=O)CCN4C(=O)/C(=C\c5cccs5)SC4=S)CC3)=NC2=O)cc1	106.0	-27.1	nt	nt
9	CC(C)(C)c1cc(N/C(=N\S(=O)(=O)c2ccccc2)c2ccccc2)no1	106.4	-21.7	107.2	87.6
10	COc1ccc(C2CC(=O)C3=C(C2)Nc2ccccc2NC3c2cc(OC)c(Br)cc2OC)cc1 (stereo unspecified)	101.5	-17.1	nt	nt
11	CCn1c(=O)c2sccc2n2c(CCC(=O)Nc3ccc(C(C)C)cc3)nnc12	106.9	-18.4	84.3	87.1
12	COCCOC(=O)C1=C(C)NC(=S)NC1c1ccc(C)c(OC)c1 (stereo unspecified)	97.2	0.0	95.5	86.1
13	Cc1cc(C(F)(F)F)n2nc(-c3ccccc3)cc2n1	115.0	-23.1	82.3	71.6
14	COc1ccc(-c2cc3c(=O)n(CC(=O)Nc4cccc(Cl)c4C)ncn3n2)cc1	100.2	-13.1	nt	nt
15	Cc1nnc(N2CCC(C(=O)NCc3cccnc3)CC2)c2nn(-c3ccccc3)c(C)c12	104.9	-3.7	nt	nt
16	C=CCn1c(SCC(=O)OCC)nnc1C(C)C	98.8	-10.9	100.7	102.5
17	O=C1CSC(c2cccnc2)N1c1ccc(-c2csnn2)cc1 (stereo unspecified)	93.5	-4.1	98.7	47.5
18	CN(C(=O)c1cc(C(C)(C)C)nn1C)c1nnc(C(F)(F)F)s1	97.0	-10.7	92.0	87.9
19	O=C(NCCS(=O)(=O)Cc1ccc(F)cc1)c1c(F)cccc1Cl	103.2	nt	70.9	92.5
20	CCn1c(=O)c(N2CCCC(C(=O)NC3CCN(Cc4ccccc4)CC3)C2)nc2ccccc21 (stereo unspecified)	108.9	-25.4	nt	nt
21	CC(C)C(=O)n1nc(-c2ccccc2Cl)nc1N	101.0	8.3	nt	nt
22	Nc1ccc(-c2nc3ccccc3n2CCCOc2ccccc2)cc1	101.3	nt	119.3	81.5
23	CCOC(=O)c1c(-c2ccccc2)csc1NC(=O)c1sc2cc(F)ccc2c1Cl	106.3	-18.2	nt	nt
24	O=C1C(c2ccccc2)NC(=S)N1C1CCCCC1 (stereo unspecified)	98.5	-29.4	101.5	93.9
25	O=C(NC(CO)C(=O)O)c1cncc(Br)c1 (stereo unspecified)	108.0	-5.2	85.2	79.2
26	Cc1cccc(OCCn2c(CO)nc3ccccc32)c1	100.5	-9.1&-13.1	nt	nt
27	CN(C)S(=O)(=O)c1ccc(N2CCCC2)c(C(=O)NCc2ccccc2)c1	nt	-13.7	133.7	101.2
28	Clc1ccc(N=Cc2ccccc2)cc1	102.3	-5.3	114.2	85.8
29	COc1ccccc1OCCOc1c(Cl)cc(C=C2C(=O)N(C)C(=O)N(C)C2=O)cc1OC	104.6	-11.0	nt	nt
30	CCOC(=O)c1c(NC(C)=O)c2c3c(sc2n1Cc1ccc(Cl)cc1)CCCC3	101.9	-21.2	108.4	94.4
31	CCOC(=O)c1[nH]c(C)c(C2C(C#N)=C(N)OC3=C2C(=O)CCC3)c1C (stereo unspecified)	104.6	8.2	87.5	82.8
32	COc1ccc(OC)c(CCNC(=O)C2CCCN(c3nc4ccccc4[nH]3)C2)c1 (stereo unspecified)	102.3	2.0	98.2	78.9
33	CCOC(=O)c1c(C)[nH]c(C)c1S(=O)(=O)N1CCCC(C(=O)Nc2cc(C)ccc2C)C1 (stereo unspecified)	106.8	nt	90.9	86.2
34	COc1cc(OC)c(NC(=O)c2c3c(nc4ccccc24)C(=O)N(C2CCCCC2)C3)cc1Cl	96.4	nt	91.7	86.9
35	O=C(NCc1cccc(F)c1)c1ccc(CS(=O)c2ccccc2Cl)o1 (stereo unspecified)	108.6	nt	95.9	88.3
36	Cc1ccc(NC(=O)C2CCN(S(=O)(=O)c3cccs3)CC2)cc1	107.2	-8.8	96.5	88.9
37	Cc1ccc(Nc2sc(C(=O)c3ccccc3)c(N)c2C(=O)NC(C)C)cc1	102.2	nt	111.6	89.5
38	CCOC(=O)c1cc(C(=O)O)nn1C	104.5	-7.5	99.4	93.3
39	Cc1cccc(NC(=O)CSc2nc(=O)n(Cc3cccnc3)c3c2CCC3)c1	108.8	nt	87.2	94.0
40	COc1ccc(CCc2nnc3sc(-c4ccncc4)nn23)cc1OC	109.0	-11.4	nt	nt
41	Cc1oc2c(c(C)cc3oc(=O)c(CC(=O)NCCc4ccccc4)c(C)c32)c1C	106.3	-9.3	89.6	95.7
42	COc1cccc(-n2ccn3c(SCC(=O)Nc4ccc(C)cc4)nnc3c2=O)c1	106.1	-2.3	nt	nt
43	CCc1c(C)sc2c1CCN(Cc1ccccc1C#N)C2c1ccccc1 (stereo unspecified)	112.4	nt	97.9	84.8
44	O=C(O)c1ccccc1NCc1cccs1	99.7	-8.7	137.9	78.2
45	COCC(C)Nc1ncnc2sc3c(c12)CCC3 (stereo unspecified)	nt	-13.5	105.0	96.5
46	C[C@H](NS(=O)(=O)/C=C/c1ccccc1)C(=O)OC1CCOC1=O (stereo partly specified)	nt	-1.0	83.8	95.8
47	Cc1c2cnn(CC(=O)N3CCN(c4ccc(F)cc4)CC3)c(=O)c2c(C)n1Cc1ccc(F)cc1	107.0	3.8	104.9	82.0
48	CC(=O)Nc1scc[n+]1Cc1ccccc1	nt	-9.6	90.6	84.2
49	Cc1cccc(OCc2nnc(SCC(=O)C34CC5CC(CC(C5)C3)C4)o2)c1	nt	-27.7	86.5	91.5
50	O=C(CCS(=O)(=O)c1cc(Br)cc2c1N(C(=O)C1CC1)CC2)NCc1ccc(F)cc1	104.7	-7.4	98.2	68.4
51	CC12CC3(C)CC(C)(C1)CC(C(=O)NC(=S)NC(C)(C)C)(C2)C3	101.5	nt	110.2	91.4
52	O=C(O)CCCn1nc(-c2ccccc2)c2ccccc21	94.5	-17.9	105.6	74.5
53	O=c1[nH]c(=S)[nH]c(O)c1C=Nc1ccc(Br)cc1	108.2	36.7	94.1	106.3
54	COc1ccc(N2C(=O)CC(N(C(C)=O)c3ccc(OC)cc3)C2=O)cc1 (stereo unspecified)	94.8	nt	106.5	86.8
55	COc1ccc(CNC(=O)CCc2nc(-c3ccc(OC)cc3)no2)cc1	103.4	-15.8	120.7	87.1
56	O=S(=O)(c1ccc(-c2cnc(C3CC3)o2)cc1)N1CCN(c2ccccc2F)CC1	98.8	nt	101.9	95.4
57	O=C(NCc1ccccn1)c1ccc2c(c1)N(Cc1ccccc1)C(=O)c1ccccc1S2=O (stereo unspecified)	109.9	5.3	111.2	94.3
58	CC1(C)CC(=O)C=C(NNS(=O)(=O)c2ccccc2)C1	99.1	-3.8	98.7	88.0
59	COc1ccc(N2CC(NC(=O)c3cc4ccccc4o3)CC2=O)cc1 (stereo unspecified)	99.0&97.4	nt	107.7	88.5
60	Cc1cccc(NC(=O)C(=O)NCCc2csc(-c3ccc(F)cc3)n2)c1C	102.2	nt	100.2	84.4

# Next compounds:
item	SMILES	GIV-Gai inh	HCMV NEC inh	Sa growth 42C	Sa growth 42C second temp
61	O=C(NC1CCCCNC1=O)c1ccccc1 (stereo unspecified)	99.8	-5.5	104.2	89.7
62	C=CCn1c(C)nnc1SCC(=O)N1CCN(S(=O)(=O)c2ccc3ccccc3c2)CC1	nt	-34.6	93.0	81.9
63	CC1=CC(C)(C)N(CC(=O)c2ccccc2)c2ccc(C)cc21	96.5	-4.1	84.5	105.9
64	Cc1ccccc1-c1nc2c3c4c(sc3ncn2n1)C(C)(C)NC(C)(C)C4	102.6	-8.7	nt	nt
65	CCOC(=O)[C@H](CCc1ccccc1)N[C@H]1CCc2ccccc2N(CC(=O)O)C1=O	nt	-45.5&1.5	91.1&100.8	81.2&91.9
66	O=C(Nc1onc2c1CCCC2)c1ccc(F)cc1	98.9	-18.5	nt	nt
67	O=C(CN1c2ccc(F)cc2-c2ccccc2S1(=O)=O)Nc1ccc2c(c1)OCCO2	103.0	-25.6	nt	nt
68	O=C(CCN1C(=O)/C(=C\c2ccco2)SC1=S)N1CCCC1	104.7	-127.1	99.0	83.0
69	COc1ccc(NC(=O)CCc2c(C)nc3cc(-c4ccc(Cl)cc4)nn3c2C)c(OC)c1	104.0	nt	112.4	91.7
70	O=S(=O)(Nc1ccc(Cl)cc1)c1ccc2oc(=S)[nH]c2c1	nt	-5.0	64.8	83.2
71	Brc1ccc(-c2noc(-c3ccc(Br)cc3)n2)cc1	nt	-8.4	104.0	85.2
72	Nc1ccc2nc(CCc3nc4ccc(N)cc4s3)sc2c1	201.5	-6.3	121.7	102.4
73	COC(=O)c1ccccc1S(=O)(=O)NC(Cc1ccccc1)C(=O)OC (stereo unspecified)	nt	-22.5	99.2	94.5
74	CCc1ccc(NC2OC(=O)c3ccccc32)cc1 (stereo unspecified)	nt	-14.9	89.1	78.7
75	Cc1ccc(N(C(=O)C2CCC(=O)N2)C2(C(=O)NC3CCCC3)CCCCC2)cc1 (stereo unspecified)	102.3	21.9	nt	nt
76	CN1C(=O)C2C3c4ccccc4C(c4ccccc43)C2C1=O (stereo unspecified)	96.7	-26.1	95.0	82.1
77	Cc1occc1C(=O)CC#N	nt	-11.1	75.0	88.1
78	CC1(C)CC2CC(C)(CN2CC(=O)Nc2ccc3c(c2)OCCO3)C1 (stereo unspecified)	nt	-29.4	97.1	94.9
79	CCCC1=Nc2cc(C(=O)NCCOC)ccc2Sc2ccccc21	105.0	1.0	98.4	93.2
80	O=C1CC(c2ccccc2)Cc2[nH]c(=O)c(C(=O)Nc3ccc(OC(F)(F)F)cc3)cc21 (stereo unspecified)	103.9	6.3	88.8	102.2
81	CCN1CCc2c(sc3[nH]c(=S)n(-c4cccc(OC)c4)c(=O)c23)C1	nt	9.6	105.3	99.0
82	CCOC(=O)c1ccc(Nc2nnc(-c3cc4cc([N+](=O)[O-])ccc4oc3=O)s2)cc1	103.6	-13.7	nt	nt
83	N#Cc1c(N)nc2sc3c(O)cc(=O)[nH]c3c2c1-c1ccc(Cl)cc1	107.6	-118.3	136.5	99.3
84	CNS(=O)(=O)c1cn(CC(=O)N2CCN(c3ccc(C)cc3C)CC2)cc1S(=O)(=O)NC	98.3	nt	111.0	90.8

# Arranged by formula weight (lowest first): some entries from above.
item	SMILES	GIV-Gai inh	HCMV NEC inh	Sa growth 42C	Sa growth 42C second temp
77	Cc1occc1C(=O)CC#N	nt	-11.1	75.0	88.1
74	CCc1ccc(NC2OC(=O)c3ccccc32)cc1 (stereo unspecified)	nt	-14.9	89.1	78.7
76	CN1C(=O)C2C3c4ccccc4C(c4ccccc43)C2C1=O (stereo unspecified)	96.7	-26.1	95.0	82.1
72	Nc1ccc2nc(CCc3nc4ccc(N)cc4s3)sc2c1	201.5	-6.3	121.7	102.4
68	O=C(CCN1C(=O)/C(=C\c2ccco2)SC1=S)N1CCCC1	104.7	-127.1	99.0	83.0
70	O=S(=O)(Nc1ccc(Cl)cc1)c1ccc2oc(=S)[nH]c2c1	nt	-5.0	64.8	83.2
78	CC1(C)CC2CC(C)(CN2CC(=O)Nc2ccc3c(c2)OCCO3)C1 (stereo unspecified)	nt	-29.4	97.1	94.9
79	CCCC1=Nc2cc(C(=O)NCCOC)ccc2Sc2ccccc21	105.0	1.0	98.4	93.2
83	N#Cc1c(N)nc2sc3c(O)cc(=O)[nH]c3c2c1-c1ccc(Cl)cc1	107.6	-118.3	136.5	99.3
81	CCN1CCc2c(sc3[nH]c(=S)n(-c4cccc(OC)c4)c(=O)c23)C1	nt	9.6	105.3	99.0
73	COC(=O)c1ccccc1S(=O)(=O)NC(Cc1ccccc1)C(=O)OC (stereo unspecified)	nt	-22.5	99.2	94.5
75	Cc1ccc(N(C(=O)C2CCC(=O)N2)C2(C(=O)NC3CCCC3)CCCCC2)cc1 (stereo unspecified)	102.3	21.9	nt	nt
67	O=C(CN1c2ccc(F)cc2-c2ccccc2S1(=O)=O)Nc1ccc2c(c1)OCCO2	103.0	-25.6	nt	nt
80	O=C1CC(c2ccccc2)Cc2[nH]c(=O)c(C(=O)Nc3ccc(OC(F)(F)F)cc3)cc21 (stereo unspecified)	103.9	6.3	88.8	102.2
69	COc1ccc(NC(=O)CCc2c(C)nc3cc(-c4ccc(Cl)cc4)nn3c2C)c(OC)c1	104.0	nt	112.4	91.7
